D2 ag: Beta-Arrestin HTS for Positive Allosteric Modulators of the Human D2 Dopamine Receptor: Agonists; D(2) dopamine receptor (Homo sapiens), P14416; DiscoveRx PathHunter D2 beta-arrestin, luminescence, 90 min; 100% = 57 uM dopamine signal; activation, % (no concentration beside the values); 0.084% of 360,000 active; in the data active = activation above about 40%; inconclusive = about 15% to 40%; inactive = below about 15%; note: compound concentration not given in the record; the text of the record calls up to 30% inactive
Target sequence (P14416 whole entry, looked up): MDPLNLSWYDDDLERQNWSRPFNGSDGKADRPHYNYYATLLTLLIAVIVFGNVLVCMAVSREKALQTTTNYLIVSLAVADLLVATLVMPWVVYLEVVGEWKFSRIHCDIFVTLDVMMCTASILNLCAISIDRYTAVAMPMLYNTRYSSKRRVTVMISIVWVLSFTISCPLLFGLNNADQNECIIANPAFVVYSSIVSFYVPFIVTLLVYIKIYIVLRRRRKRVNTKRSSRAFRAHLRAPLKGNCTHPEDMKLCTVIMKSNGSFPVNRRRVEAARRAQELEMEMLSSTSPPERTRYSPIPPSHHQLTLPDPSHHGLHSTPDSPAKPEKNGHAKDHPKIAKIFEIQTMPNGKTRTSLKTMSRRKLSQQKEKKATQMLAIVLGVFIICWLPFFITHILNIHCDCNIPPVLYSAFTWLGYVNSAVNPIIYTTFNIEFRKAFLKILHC
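DiscoveRx PathHunter D2 beta-arrestin cells (2,100/well) attached overnight, then compound-stimulated 90 min at 37 C in HBSS/10 mM HEPES/0.1% Tween-20 buffer; beta-galactosidase complementation read by luminescence after 1 h at ambient temperature. Dopamine 57 uM final (EC100) as control.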
Menin-MLL FL inh: qHTS Assay for Inhibitors Targeting the Menin-MLL Interaction in MLL Related Leukemias: Competition With Fluorescein Labeled MLL-derived Peptide. Fluorescence polarization, fluorescein-MLL peptide displacement from menin. FP activity change, % at 61.4 µM. 290,000 tested, under 10 active. AID 1766, 2009; inconclusive = falling polarisation curve, or a change in total fluorescence; inactive = total fluorescence flat and polarisation flat or rising; no compound was filed as active; the % refers to the polarisation; negative = inhibition;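 note: % of control where 0% means no effect; inhibitors lower the polarisation; unlabelled MLL peptide was the positive control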
gsp antag: qHTS for Antagonists of gsp, the Etiologic Mutation Responsible for Fibrous Dysplasia/McCune-Albright Syndrome: qHTS; gsp-mutant cells, cAMP HTRF, 30 min; control for the full effect not named in the record; Potency, µM (top dose mostly 76.9 µM), for the others: top-dose activity change, negative = inhibition, usual class: inhibitors; 0.4% of 340,000 active; AID 624288, 2012; active = falling curve of any shape with a large fitted effect; inconclusive = falling curve, mostly with a smaller effect; inactive = flat or rising curve; cell line not stated here;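 note: intracellular cAMP measured with PDE inhibitor Ro 20-1724 present during compound exposure; potency is the fitted concentration of half-maximal effect; % is set by controls: 0 for no effect and ±100 for the full control effect; nearly all actives have a fitted effect of over 65% in size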
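Cells in G418 medium, seeded 16-24 h, 37C; buffer exchange to DPBS + 1 mM CaCl2, 0.5 mM MgCl2, 0.05% BSA; cpds in DMSO + […] (300 uM stock), 30 min 37C; HTRF cAMP detection.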
ClpP mod: qHTS Assay for Activators of ClpP. ATP-dependent Clp protease proteolytic subunit (Bacillus subtilis (strain 168)), P80244. purified B. subtilis ClpP, FRET peptide cleavage, 20 min. Potency, µM (series often up to 57.5 µM), inactives show top-dose activity change, negative = active. 1.9% of 340,000 active. AID 651965, 2013; active = well fitted falling curve with a large enough effect; inconclusive = small, poorly fitted or top-dose-only effect; inactive = no such curve, though single readings can be large or run the other way; note: potency is the fitted concentration of half-maximal effect; the source files actives as falling curves though it sought activators and does not explain the sign; nearly all actives have a fitted effect of over 65% in size; many hits overshoot -100%
Target sequence (P80244 whole entry, looked up): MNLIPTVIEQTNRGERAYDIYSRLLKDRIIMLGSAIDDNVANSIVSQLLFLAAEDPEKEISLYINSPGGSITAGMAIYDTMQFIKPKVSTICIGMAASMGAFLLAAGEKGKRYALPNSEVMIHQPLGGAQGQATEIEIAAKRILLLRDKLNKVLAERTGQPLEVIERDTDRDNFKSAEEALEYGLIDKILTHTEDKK
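Purified B. subtilis ClpP, 10 microg/mL final in Tris/HCl pH8 with KCl, BSA, glycerol and Tween-20, cleaved an Abz/nitrotyrosine-quenched decapeptide. Fluorescence (ex 320, em 430) was read at 0 and 20 min at room temperature. Delta was normalized to 5.8 microM ADEP and DMSO/no-enzyme controls.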
Sfp inh: qHTS Assay for Inhibitors of Bacillus subtilis Sfp phosphopantetheinyl transferase (PPTase) | 4'-phosphopantetheinyl transferase ffp (Bacillus subtilis), Q9F4F7 | Biochemical Sfp PPTase activity, qHTS | Potency, µM, for inactives: max response, negative = inhibition, actives largely listed as inhibitors | 3.5% of 310,000 active | AID 1490, 2009; active = well fitted inhibition curve with a large enough effect; inconclusive = small, poorly fitted or top-dose-only effect, or another doubt; inactive = no such curve, though single readings can be large or run the other way;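 note: the enzyme is Sfp with the accession as filed and its product quenches rhodamine fluorescence; potency is the fitted concentration of half-maximal effect; 0% = enzyme reaction without inhibitor and -100% = no enzyme wells; top concentration of the series not given in the record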
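Compounds were incubated with enzyme (final 15 nM) for 15 min at room temperature before substrate addition started the reaction. Fluorescence at 525 nm excitation, 598 nm emission was recorded immediately and after 30 minutes.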
gsp ag: qHTS for Agonist of gsp, the Etiologic Mutation Responsible for Fibrous Dysplasia/McCune-Albright Syndrome: qHTS. gsp mutant cells, cAMP HTRF, 30 min; control for the full effect not named in the record. Potency, µM (highest dose often 76.9 µM), for the others: top-dose activation (cAMP increase), hits mostly activators. 0.13% of 340,000 active. AID 624287, 2012; active = well fitted activation curve with a large enough effect; inconclusive = small, poorly fitted or top-dose-only effect, or another doubt; inactive = no such curve, though single readings can be large or run the other way; cell line not stated here;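 note: phosphodiesterase inhibitor Ro 20-1724 added with compounds to block cAMP breakdown; potency is the fitted concentration of half-maximal effect; nearly all actives have a fitted effect of over 60% in size; about a fifth of the inactives were tested at one dose only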
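Cells stably selected in G418 were plated at 2000/well, grown 16-24 hr, then given compounds in DMSO with the PDE inhibitor […] (300 uM solution added) for 30 min at 37C; cAMP was read by HTRF.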
PINK1 modulator: A Quantitative High throughput Screen to Identify Chemical Modulators of PINK1 Expression | PINK1 immunofluorescence, high-content cytometry, 24 h | Potency, µM (series often up to 76.6 µM), for the others: top-dose activation (PINK1 increase), most hits filed as activators | 0.2% of 410,000 active | AID 624263, 2012; active = well fitted activation curve with a large enough effect; inconclusive = small, poorly fitted or top-dose-only effect; inactive = flat fitted curve, though single readings scatter; cell line not stated here;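 note: potency is the fitted concentration of half-maximal effect; % of control where 0% means no effect; nearly all actives have a fitted effect of over 65% in size; a mitochondrial uncoupler was the plate control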
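Stable cell line treated 24 h with compounds at 5 concentrations (CCCP controls), then fixed and immunostained for PINK1 plus nuclear and cell stains; PINK1 immunofluorescence quantified by laser-scanning microplate cytometry.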
* marks the source's active call; other numbers are inactive results; ? = inconclusive; / = not tested or not shown; & = joins results of further samples; [ ] = remark or other dose. This is a random part of the collection. About 5.1% of those tested had a hit in this group.

Start of the data: the first 2 entries as a preview:
SMILES	D2 ag	Menin-MLL FL inh	gsp antag	ClpP mod	Sfp inh	gsp ag	PINK1 modulator
Cc1ccccc1N(CC(=O)N1CCN(Cc2ccccc2)CC1)S(C)(=O)=O	-8.4	/	/	0.0%	/	0%	1.7%
O=C(NCc1ccccc1)c1cc(C2CCCN(C(=O)CCCc3ccccc3)C2)on1 (stereo unspecified)	0.4	/	/	0.0%	/	/	0.2%

All compounds of this part, from the first entry:
SMILES	D2 ag	Menin-MLL FL inh	gsp antag	ClpP mod	Sfp inh	gsp ag	PINK1 modulator
Cc1ccccc1N(CC(=O)N1CCN(Cc2ccccc2)CC1)S(C)(=O)=O	-8.4	/	/	0.0%	/	0%	1.7%
O=C(NCc1ccccc1)c1cc(C2CCCN(C(=O)CCCc3ccccc3)C2)on1 (stereo unspecified)	0.4	/	/	0.0%	/	/	0.2%
Cc1cccc(NC(=O)C2(c3cccs3)CCOCC2)n1	1.4	-5.6	5%	-2.6%	5%	3%	-1.8%
Nc1nc(N)nc(-c2ccccc2-c2nc(N)nc(N)n2)n1	-0.1	-25	1%	3.4%	8%	-3%	2.6%
O=P(O)(CP(=O)(c1ccccc1)c1ccccc1)c1ccccc1O	1.0	-1.0	2%	0.4%	0%	9%	2.5%[38.3 µM]
CCN(CC)CCCN1C(=O)C(=O)/C(=C(/O)c2ccccc2)C1c1cc(OC)ccc1OC (stereo unspecified)	-0.4	3.3	-2%	-1.8%	22%	31%[15.4 µM]	-2.0%
CCOc1ncccc1C(=O)N1CCN(S(=O)(=O)c2ccccc2)CC1	-1.5	-1.1	-20%	-2.5%	2%	-4%[15.4 µM]	0.3%
CN1C(=O)CSc2ccc(NC(=O)NCCC3=CCCCC3)cc21	2.5	2.5	-5%	-0.3%	-1%	18%	/
COc1ccc(Cc2nnc(NC(=O)Nc3ccccc3)s2)cc1OC	-2.9	0.0	0%	-3.6%	-18%	8%[15.4 µM]	11%
Cn1c(NCCN(CCO)CCCc2ccc([N+](=O)[O-])cc2)cc(=O)n(C)c1=O	-4.0	-4.0	-2%	1.3%	15%	/	1.2%
COc1ccc(N2CCN(S(=O)(=O)c3ccc(Br)s3)CC2)cc1	3.2	6.1	-5%	0.4%	11%	-14%	/
COc1cccc(SCc2noc(C(=O)NCCCN3CCOCC3)c2C(=O)NCCCN2CCOCC2)c1	-0.9	/	-4%	0.6%	/	-30%	0.0%
O=C(NCCN1CCOCC1)C1CC(=O)N(c2ccc(Cl)cc2)C1 (stereo unspecified)	6.4	7.1	8%	/	16%	29%	-1.3%
COc1ccccc1C(=O)N1CCN(S(=O)(=O)Cc2ccccc2)CC1	-0.2	-1.2	3%	-3.3%	8%	-21%	-2.4%
CCOc1ccc2ncc(S(=O)(=O)c3ccccc3)c(N3CCN(c4ccccc4)CC3)c2c1	1.0	/	-1%	/	/	6%[15.4 µM]	8.0%
Cc1ccc(F)cc1NC(=O)COC(=O)c1ccc2ncsc2c1	-3.7	/	-4%	-4.7%	/	8%	9.0%
COc1ccccc1C(=O)OCC(=O)c1cccc([N+](=O)[O-])c1	-2.5	-1.8	-2%	1.1%	8%	-10%	0.9%
O=[N+]([O-])c1ccc(O)c(/C=N/n2c(CO)nc3ccccc32)c1	-8.7	2.5	-15%	1.8%	0%	?	1.2%
O=C(NC(=O)c1ccccc1Cl)C(=O)Nc1ccc(Cl)cc1	-1.3	/	1%	-0.2%	16%	12%[15.4 µM]	0.2%
COC(=O)Cc1n[nH]c(=S)[nH]c1=O	0.1	7.6	5%	-0.6%	18µM*	-16%	1.0%[38.3 µM]

Complete entries, looked up by structure. Screens in order: D2 ag, Menin-MLL FL inh, gsp antag, ClpP mod, Sfp inh, gsp ag, PINK1 modulator
`O=C(NC(=O)c1ccccc1Cl)C(=O)Nc1ccc(Cl)cc1` reads -1.3, /, 1%, -0.2%, 16%, 12%[15.4 µM], 0.2%
`CCN(CC)CCCN1C(=O)C(=O)/C(=C(/O)c2ccccc2)C1c1cc(OC)ccc1OC` (stereo unspecified) reads -0.4, 3.3, -2%, -1.8%, 22%, 31%[15.4 µM], -2.0%
`COc1ccc(N2CCN(S(=O)(=O)c3ccc(Br)s3)CC2)cc1` reads 3.2, 6.1, -5%, 0.4%, 11%, -14%, /

New compounds follow:
SMILES	D2 ag	Menin-MLL FL inh	gsp antag	ClpP mod	Sfp inh	gsp ag	PINK1 modulator
Cc1cccc(NC(=O)/C(=C\c2cccs2)NC(=O)c2ccccc2)c1	-1.2	3.5	9%	2.3%	-9%	19%	1.7%
COc1ccc(OC)c(NC(=O)COC(=O)c2ccc(OC)c(S(=O)(=O)N3CCOCC3)c2)c1	-1.9	/	-12%	1.8%	/	2%	0.0%
CC(=O)Oc1ccc2c(c1)OC(c1ccccc1)CC21CC(C)(C)NC(=S)N1 (stereo unspecified)	1.8	1.3	-3%	-1.8%	10%	-1%	2.0%
Cc1ccc(C)c(N2CCN(S(=O)(=O)c3ccc4c(c3)CC(=O)N4C)CC2)c1	1.5	-1.4	-14%	1.5%	-9%	-14%	0.1%&2.3%
O=C(NCc1ccco1)c1ccc(CS(=O)c2ccccc2Cl)o1 (stereo unspecified)	1.0	/	/	-0.6%	/	-2%	1.9%
O=C(CCN1C(=O)COc2ccccc21)NCCCN1CCc2ccccc2C1	0.6	2.7	9%	-2.4%	-8%	-5%	-1.3%[38.3 µM]
CCOC(=O)NC(=O)C(=CNc1cccc(C)c1)C(=O)NC(=O)OCC	-1.9	5.6	-19%	/	-1%	-2%[15.4 µM]	0.3%
CCOC(=O)c1c(N)sc(C(C)=O)c1C	-6.6	1.2	25%	-1.1%	-34%	?	-0.4%
CCOC(=O)c1c(C(F)(F)F)nc2ncccn12	-3.4	9.5	17%	25µM*	15%	17%	0.3%
Cc1cccn2c(=O)c(/C=C(\C#N)S(=O)(=O)c3ccccc3)c(N3CCN(Cc4ccccc4)CC3)nc12	0.3	/	-6%	-5.7%	0%	20%	-0.2%
Cc1ccc(NC(=O)Cn2ccc([N+](=O)[O-])n2)cc1Cl	-2.7	-2.7	6%	0.1%	24%	20%	1.7%
O=C(Nc1ccc(OC(F)(F)F)cc1)c1[nH]ncc1[N+](=O)[O-]	-1.5	1.0	-16%	-2.9%	4%	8%	13%
O=C(O)CCc1ccc(-c2ccc(Br)cc2)o1	-2.3	3.6	9%	-0.5%	18µM*	?	1.0%
O=c1c(-c2ccccc2)nc2cnc(N3CCOCC3)nc2n1C1CC1	/	-6.7	/	/	2%	/	-0.3%
COc1ccc(CCN=C(N)NS(=O)(=O)c2ccccc2)cc1	-0.7	-2.5	-2%	-1.9%	-6%	-22%	-0.1%
CCOC(=O)C1(C)CCN1C(=O)c1ccccc1Br (stereo unspecified)	-3.8	/	/	0.2%	/	/	-0.5%
CCCCN1C(=O)C(O)=C(C(C)=O)C1c1ccccc1[N+](=O)[O-] (stereo unspecified)	-1.6	-0.3	-21%	0.2%	18µM*	-32%[inhibitor]	0.1%
COc1ccc(NC(=O)Nc2cc(C(C)(C)C)on2)cc1OC	1.2	/	-3%	1.3%	-1%	?	3.2%
Cc1ccc(-c2csc(NC(=O)c3c(C)noc3C)n2)cc1C	6.2	/	?	0.1%	/	39%	2.5%
Cc1nc(S(=O)(=O)c2ccc(Cl)cc2)nc2c1CCC2	-2.6	-5.9	8%	0.8%	21%	-70%[inhibitor]	2.0%
Clc1ccccc1C(c1ccccc1)(c1ccccc1)n1ccnc1	8.8	-1.7	?	-4.0%	-60%&-34%&-11%	/	-1.0%
CCOc1ccc(NC2CCN(C(C)=O)CC2)cc1	-0.7	-0.4	-7%	-4.5%	-1%	-45%[inhibitor]	0.6%
O=C(CC1(CC(=O)N2CCOCC2)CCCC1)Nc1ccc(F)cc1	1.0	/	15%	/	/	2%	-1.5%
O=C(c1cc(COc2ccc(F)cc2Cl)on1)N1CCCCC1c1cccnc1 (stereo unspecified)	2.0	-2.7	-7%	-2.1%	0%	22%	1.0%
CC1Cc2ccccc2N1C(=O)CCS(=O)(=O)c1cccc2nonc12 (stereo unspecified)	-2.5	3.8	13%	-0.9%	6%	-22%	-1.0%
CC(=O)c1ccc(OCC(=O)OC(C)C(=O)NC2CCCCC2C)cc1 (stereo unspecified)	-1.4	/	-13%	-0.7%	/	-20%	5.7%
Cc1ccccc1OC(C)C(=O)NC1CCCC1 (stereo unspecified)	-2.5	3.2	4%	-0.5%	-5%	-5%	1.5%
CCCCCCCC(=O)Nc1cc(C(=O)NCc2ccc(C)cc2)ccc1N1CCC2(CC1)CC(c1ccccc1)=NO2	-0.9	-0.7	9%	-11%	11%	/	6.3%
COc1ccccc1CN(Cc1nc2ccccc2c(=O)[nH]1)C(=O)Nc1ccccc1	-1.6	0.7	6%	1.0%	3%	-25%	-0.4%
Cc1ccc(S(=O)(=O)N2CCCC(C(=O)Nc3ccc(NC(=O)c4ccccn4)cc3)C2)cc1 (stereo unspecified)	-1.7	3.9	10%	34%	?	-29%	6.5%
C[C@@H]1CN([C@H](C)CO)C(=O)CCCn2cc(nn2)CO[C@H]1CN(C)C(=O)Nc1cccc(Oc2ccccn2)c1	-7.7	/	/	-2.7%	/	11%	0.9%
CN(Cc1ccccc1)C(=O)Nc1ccccc1	-3.6	1.5	7%	-3.0%	10%	4%	-3.4%[38.3 µM]
